# PrP UTR inh = inhibition of PrP 5' UTR reporter expression. 340,000 compounds, 0.35% hits. cell-based PrP 5' UTR mRNA reporter, plate reader. inhibition, % (concentration not given with the values);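 active = every replicate at 50% or more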;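 also: 0 = median of the neutral control wells; tested in H4 reporter cells; numbers are from one replicate; inactives centre near -14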
# Mtb hypoxia inh = reduces hypoxia-regulated biosensor signal in M. tuberculosis; M. tuberculosis hypoxia-regulated fluorescent reporter, fluorescence; 300,000 compounds, 0.1% hits; AID 1159583; fluorescence inhibition, % (concentration not given with the values);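 active = 35 to 45% if threefold the growth effect, above 45% if 1.5-fold the growth effect; inactive = the rest, general growth blockers included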;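 also: wells of about 50 µL received 100 nL stock; 0% = vehicle wells and 100% = reference inhibitor wells; whole bacteria with a GFP reporter of the hypoxia response; strong numbers were not always called active; many hits fall short of the cut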
# Bead autofluor = compound fluorescence in toxin protease inhibitor counterscreen; 360,000 compounds, 3.1% hits; compound autofluorescence counterscreen, microsphere flow cytometry; stronger effect = higher value; fluorescence intensity (concentration not given with the values);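 active = at least 3 SD above the mean of all compounds, about 16000 in these data; inconclusive = too few beads counted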;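 also: 100 nL of 1 mM stock went into each well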
# Sa RN4220 lethal = S. aureus RN4220 growth inhibition; OD600, 16 h; AID 1259311; inhibition, % (test concentration not listed); 330,000 compounds, 0.33% hits;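 active = z-score of -3 or lower and OD600 up to 0.18 on both plates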;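 also: plate controls were untreated cells for no effect and reference antibiotic for full effect; stock transfer was 100 nL into about 80 µL; one replicate is shown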
# ugtP null kill = growth inhibition of S. aureus ugtP deletion strain; 330,000 compounds, 0.54% hits; S. aureus RN4220 ugtP deletion, OD600 growth, 16 h; some inactives read as strong as hits; growth inhibition, % (no concentration beside the values);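 active = z-score under -3 and OD600 up to 0.15 on both plates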;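 also: plate controls were untreated wells for no effect and antibiotic for full effect; wells of about 80 µL received 100 nL stock; the first replicate is given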
# BJeLR viability = kills HRASV12-expressing BJeLR cells | inhibition, % (test concentration not listed) | BJeLR (HRASV12) viability, CellTiter-Glo ATP luminescence, 48 h; reference of the scale not given here | 300,000 compounds, 0.17% hits | AID 1554;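 active = replicate mean above 50%; inconclusive = above 50% but judged a plate artefact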;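 also: 50 nL library stock added to about 25 µL; numbers are from one replicate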
# Mtb hypoxia inh growth = second read-out of Mtb hypoxia inh, no call of its own (marks repeat the call); growth inhibition, %; measured here: M. tuberculosis growth (absorbance);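 0% = vehicle and 100% = reference antibiotic; read after six days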
# Starred values were filed as active, the others as inactive; ? = inconclusive; . = no result given; & = joins results of further samples.
SMILES,PrP UTR inh,Mtb hypoxia inh,Mtb hypoxia inh growth,Bead autofluor,Sa RN4220 lethal,ugtP null kill,BJeLR viability
O=C(Nc1nccs1)c1ccc(-c2ccc(Cl)cc2Cl)o1,-13,-6,-4,6578,1.4,-23,-2
COc1cc(OCC(N)=O)cc(OC)c1OC,-7,3,5,2238,2.8,9,1
O=[N+]([O-])c1ccc(C2CCCC/C2=N/O)c([N+](=O)[O-])c1 (configuration not stated),-7,.,.,3541,.,.,0
CCN(C(=O)c1ccc(Br)o1)C1CCS(=O)(=O)C1 (configuration not stated),-8,0,-3,?,4.3,4,-9
OC(COC(c1ccccc1)c1ccccc1)CN1CCN(c2ccccn2)CC1 (configuration not stated),-8,3,-1,2281,-3.7,11,-23
COc1ccc(S(=O)(=O)NCC2CCC(C(=O)NCc3cccnc3)CC2)cc1 (configuration not stated),-14,7,0,4573,5.1,4,2
CC1CCCC(C)N1C(=O)CN1C(=O)C(C)(C)Oc2ccc(C(=O)NC3CCCCC3)cc21 (configuration not stated),-29,7,10,6136,7.3,-15,-6
Cc1ccc(-c2nc3ccccc3s2)cc1NC(=O)c1ccc2c(c1)OCO2,-22,5,1,6494,4.4,3,-2
CC(C)c1ccc(-n2ccnc2SCC(=O)O)cc1,-11,7,11,4407,9.4,4,7
CCCN1CCC2(CC1)NC(C(=O)O)Cc1c2[nH]c2ccccc12 (configuration not stated),-13,4,4,3821,2.6,6,-4
O=C(COc1cccc(C(F)(F)F)c1)N1CCN(c2ccccc2O)CC1,-17,-3,9,4790,5.1,-1,4
O=C(CN1CCCCC1)Nc1nc(-c2ccc(Cl)cc2)cs1,-34,9,7,4112,-13,25,2
N=c1oc2cc(O)ccc2cc1C(=O)Nc1ccc(Cl)cc1,-44,10,11,3663,-0.8,4,6
O=C(NN=Cc1ccc([N+](=O)[O-])o1)c1cncc(Br)c1,.,.,.,.,19,66,.
CCOC(=O)C1CCN(C(=O)c2ccc3c(c2)OCO3)CC1,-17,9,9,22950*,2.7,2,5
Cc1cccc(NC(=O)CSc2nnc(C3CC3)n2CC2CCCO2)c1 (configuration not stated),12,-10,5,5937,-2.6,-2,0
COc1ccc2oc(=O)c(C(=O)Oc3ccc(NC(C)=O)cc3)cc2c1,-3,8,1,8941,6.9,13,14
C[C@@H]1CCCCCCCCCCC1=O,-6,-2,9,3457,2.0,7,-6
Cc1ccc(-c2nc(N)n(S(C)(=O)=O)n2)cc1,-13,5,11,3094,1.7,1,-1
Cc1ccc(OC/C(O)=C(\C#N)c2nc3ccccc3s2)cc1,-10,14,0,2485,78,84*,16
Cc1cc(C)c(C(=O)Nc2ccc(C)c(C)c2)c(CC(C)(C)C(=O)O)c1,-16,-3,-3,.,-1.9,1,-16
CN(CC(=O)NCc1ccccc1)S(=O)(=O)c1ccc2c(c1)CCC(=O)N2,2,-3,-2,3905,-0.2,-2,-6
CNC(=O)CSc1nnc(SCCC(=O)O)s1,-16,3,7,2603,3.1,1,-3
Cc1cccn2c(=O)c(C=C(C#N)C#N)c(N3CCN(C)CC3)nc12,-28,8,-3,3114,1.2,1,1
O=C(Nc1ccc(Cl)c([N+](=O)[O-])c1)c1ccc2c(c1)OCCO2,-91,5,12,3905,-2.8,0,.
COc1ccc(-c2csc(/N=C/N(C)C)n2)cc1OC,-33,.,.,2602,.,.,1
C=CCN1C(c2ccc(Br)cc2)=CS/C1=C(\C#N)c1nnc(N2CCOCC2)n1-c1ccccc1,-3,-2,6,4055,1.8,5,.
O=C(NCCN1CCCC1)C1CCC(=O)N(CCCN2CCOCC2)C1 (configuration not stated),-16,14,9,5571,2.2,8,4
O=S(=O)(N/N=C/c1cn(Cc2ccccc2)c2ccccc12)c1ccccc1,-24,.,.,22504*,.,.,0
CCCc1c(O)nc(SC2CC(=O)N(c3ccc(OC)cc3)C2=O)[nH]c1=O (configuration not stated),-11,-8,10,.,2.4,9,-8
CCCN1C2CCCC1CC(NC(=S)Nc1cc(C)cc(C)c1)C2 (configuration not stated),-9,16,11,3412,4.5,12,0
Cc1ccc(-c2cc3c(n2-c2ccc(C(=O)O)cc2)CCCC3=O)cc1,-17,4,5,2107,14,14,3
COc1ccc(CCN(C)CCC(=O)Nc2cc(C)ccc2C)cc1OC,-8,.,.,2077,-0.1,-6,-3
CC(C)Oc1cccc(C(=O)C2CCCN(C(=O)c3csnn3)C2)c1 (configuration not stated),-32,-2,15,5042,3.3,1,-4
CC(C)CCNC(=O)c1cn(C)c2ccc(S(=O)(=O)N3CCCC3)cc2c1=O,-3,2,-2,5383,3.2,1,5
Nc1nc(SCC(=O)NCCCN2CCOCC2)nc2sc3c(c12)CCC3,-24,17,12,8783,8.0,5,-4
O=C(COc1ccccc1C(=O)O)NC1CCCc2ccccc21 (configuration not stated),-24,-4,9,4759,-3.2,2,-7
CC1CCN(CCc2nc3cc(NC(=O)COc4ccccc4)ccc3n2C)CC1,-28,11,3,5185,1.2,11,-1
Cc1c(C)c2ccc(OCC(=O)N3CCN(C(=O)C4COc5ccccc5O4)CC3)cc2oc1=O (configuration not stated),-8,7,-5,4251,0.0,0,9
O=C(N1CCOCC1)N1CCN(c2nc(-c3ccccc3)cs2)CC1,-5,5,11,22285*,-0.4,20,-1
COCCSc1ccccc1C(=O)Nc1ccc2c(c1)OCO2,-19,4,11,4007,-6.6,5,-3
COc1ccc(/C=N/NC(=O)C2c3ccccc3Oc3ccccc32)c(OC)c1,4,.,.,3060,.,.,-9
COc1ccc(N2C(=O)C3CCCN3C2c2ccc(C)cc2)cc1Cl (configuration not stated),-4,-5,8,10076,1.8,0,2
Cc1nn(Cc2ccc(Cl)cc2Cl)c(C)c1NC(=O)c1nc2n(n1)C(C(F)F)CC(C)N2 (configuration not stated),-14,1,4,2428,-17,-12,.
CC(=O)c1ccc(N2CCN(C(=O)CCS(=O)(=O)c3ccc(C)cc3)CC2)cc1,-1,.,.,2786,1.1,-5,.
Cc1cccc(C)c1NC(=S)N1CCC(c2ccccc2)C1 (configuration not stated),-28,4,-4,5735,-0.7,-7,-7
CC(=O)c1cccc(NC(=S)NC(=O)c2ccccc2Cl)c1,-4,1,-4,2447,3.2,5,-7
COc1cccc(CNC(=O)c2nnn(CC(=O)Nc3ccc4c(c3)OCO4)c2N)c1,-3,1,9,5858,5.6,23,2
COc1c(/C=N/NC(=O)c2ccncc2)c(CCN(C)C(C)=O)cc2c1OCO2,-17,.,.,3591,.,.,1
CCOC(=O)CSc1nnc(-c2ccc(S(=O)(=O)N3CCC(C)CC3)cc2)o1,-16,-7,-13,.,-0.6,-3,10
# New compounds follow:
SMILES,PrP UTR inh,Mtb hypoxia inh,Mtb hypoxia inh growth,Bead autofluor,Sa RN4220 lethal,ugtP null kill,BJeLR viability
COc1cc(NC(=O)N2CCNC2=O)cc(C(=O)Nc2cccc(C(F)(F)F)c2)c1,-32,18,7,2812,1.3,4,10
Nc1ccccc1N1CCOCC1,-15,14,8,9497,7.5,2,-1
O=C(C[n+]1ccc2c(c1)nnn2-c1ccccc1)c1ccc(Cl)cc1,.,1,8,5381,2.2,4,0
CCOC(=O)Cc1csc(NC(=O)c2cc3c(s2)CCCC3)n1,-33,2,3,7976,-1.5,-10,9
c1cncc(-c2nc(-c3ccc4c(c3)OCCO4)cs2)c1,-53,3,12,4114,7.1,-1,3
CC1(C)C2CCC13CS(=O)(=O)NC3C2 (configuration not stated),-8,.,.,2522,-2.7,-5,.
Cc1ccc(-n2c(O)c(/C=N/c3ncn[nH]3)c3ccccc3c2=O)cc1,-7,-16,-9,1893,-4.4,-8,9
COc1cccc(CNC(=O)c2c[nH]n3c(=O)c(Cl)c(C)nc23)c1,-19,5,4,10113,7.4,3,7
Cc1cccc(N2CCN(S(=O)(=O)c3ccc(S(=O)(=O)N4CCCC4)cc3)CC2)c1C,-27,8,10,8302,2.7,-5,-1
Cc1cc(C)n2nc(SCC(=O)N/N=C/c3cccc(Br)c3)nc2n1,14,.,.,10192,.,.,-6

# 13 structures out of the list, arranged by count of non-hydrogen atoms, rising.
SMILES,PrP UTR inh,Mtb hypoxia inh,Mtb hypoxia inh growth,Bead autofluor,Sa RN4220 lethal,ugtP null kill,BJeLR viability
Nc1ccccc1N1CCOCC1,-15,14,8,9497,7.5,2,-1
CC1(C)C2CCC13CS(=O)(=O)NC3C2 (configuration not stated),-8,.,.,2522,-2.7,-5,.
c1cncc(-c2nc(-c3ccc4c(c3)OCCO4)cs2)c1,-53,3,12,4114,7.1,-1,3
CC(=O)c1cccc(NC(=S)NC(=O)c2ccccc2Cl)c1,-4,1,-4,2447,3.2,5,-7
CCOC(=O)Cc1csc(NC(=O)c2cc3c(s2)CCCC3)n1,-33,2,3,7976,-1.5,-10,9
COc1cccc(CNC(=O)c2c[nH]n3c(=O)c(Cl)c(C)nc23)c1,-19,5,4,10113,7.4,3,7
COc1ccc(N2C(=O)C3CCCN3C2c2ccc(C)cc2)cc1Cl (configuration not stated),-4,-5,8,10076,1.8,0,2
Cc1ccc(-n2c(O)c(/C=N/c3ncn[nH]3)c3ccccc3c2=O)cc1,-7,-16,-9,1893,-4.4,-8,9
CCOC(=O)CSc1nnc(-c2ccc(S(=O)(=O)N3CCC(C)CC3)cc2)o1,-16,-7,-13,.,-0.6,-3,10
COc1ccc(/C=N/NC(=O)C2c3ccccc3Oc3ccccc32)c(OC)c1,4,.,.,3060,.,.,-9
COc1cc(NC(=O)N2CCNC2=O)cc(C(=O)Nc2cccc(C(F)(F)F)c2)c1,-32,18,7,2812,1.3,4,10
COc1cccc(CNC(=O)c2nnn(CC(=O)Nc3ccc4c(c3)OCO4)c2N)c1,-3,1,9,5858,5.6,23,2
Cc1nn(Cc2ccc(Cl)cc2Cl)c(C)c1NC(=O)c1nc2n(n1)C(C(F)F)CC(C)N2 (configuration not stated),-14,1,4,2428,-17,-12,.

# (further entries)
SMILES,PrP UTR inh,Mtb hypoxia inh,Mtb hypoxia inh growth,Bead autofluor,Sa RN4220 lethal,ugtP null kill,BJeLR viability
Cc1ccc(S(=O)(=O)Cc2sc3ccccc3[n+]2C)cc1,-21,0,3,8320,1.5,5,1
Fc1ccc(/C=C/c2nnc(-c3cccs3)o2)cc1,-53,9,7,2578,7.5,1,-8
O=c1[nH]c2cc3c(cc2cc1CN(Cc1ccc2c(c1)OCO2)Cc1nnnn1CC1CCCO1)OCO3 (configuration not stated),.,5,3,7739,4.9,8,-2
O=S(=O)(Nc1ccccc1Cl)c1ccc(NS(=O)(=O)c2cccs2)cc1,-26,9,5,5059,24,-2,-3
Cc1cccc(S(=O)(=O)Nc2ccncc2)c1,-5,-7,1,6218,2.4,-1,-10
Cc1ccc(C)c(OCCC(=O)OCc2csc(CC(=O)Nc3ccccc3C)n2)c1,-23,6,6,5444,6.7,12,.
CC(COc1ccccc1)OC(=O)Nc1ccccc1 (configuration not stated),-40,12,4,3568,8.3,25,.
CC(C)c1cc(C(=O)Nc2ccc3c(c2)OCO3)no1,-67,6,6,6317,4.6,8,6
COc1ccc(CC(=O)Nc2oc(-c3ccccc3)c(-c3ccccc3)c2C#N)cc1OC,-16,-11,5,3415,-13,-19,-2
O=C(CN1C(=O)c2ccccc2C1=O)OCC(=O)N1CCc2ccccc2C1,3,1,5,2600,3.8,13,1
Cc1ccc(CNS(=O)(=O)NCc2ccccc2)cc1,-12,0,1,5224,5.9,0,5
CC(C)(C)C1CCC(C(=O)Nc2ccccc2N2CCOCC2)CC1 (configuration not stated),-8,12,0,4945,12,-4,.
c1ccc2c(c1)C(=NCC1CCCO1)NC2=NCC1CCCO1 (configuration not stated),-7,7,4,10066,3.0,-3,3
CC(=O)c1ccc(OCC(=O)Nc2c(C)nn(-c3ccccc3)c2C)cc1,-7,7,9,5520,3.6,4,2
CC(=O)CC(O)CC(=O)C1OC(=O)CCCCCCCCc2ccccc21 (configuration not stated),.,3&13&15&-2,-2&7&-1&2,.,4.7&14&5.3&15,3&5&1&19,.
COc1ccc(C(=O)OCC(=O)c2ccc[nH]2)cc1,-46,14,2,2909,7.2,7,.

# Screening data as filed in PubChem BioAssay.
